A1_apoptosis_2: blocks A1, raising caspase activity; MEF A1-2A-BIM cells, caspase-Glo luminescence, 3 h; percent of clofoctol response, DMSO zero; caspase activation, % (concentration not given with the values); 24,000 tested, under 10 active; AID 2465; in the data active = caspase activation above about 5.9%;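 note: wells of about 30 µL received 50 nL stock; the first replicate is given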
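Evaluation: Caspase-3/7 activity from luminescence increase | Assay system: A1-2A-BIM mouse embryonic fibroblasts | Quantity: 2500 MEF cells/well | Medium: RPMI-1640 plus 10% FBS | Detection: Caspase-Glo 3/7 luminescence, 1 h at room temperature | Dosing: 50 nL compound per well, pinned | Timing: Cells settled overnight, compound exposure 3 h at 37 °C, 5% CO2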
* = called active by the depositor. This is a subset; rates above refer to the full screens.

SMILES A1_apoptosis_2
C[C@H](CO)N1C[C@H](C)[C@H](CN(C)C(=O)Oc2cccc3ccccc23)OCc2cn(nn2)CCCC1=O -0.5
C[C@@H]1CN([C@@H](C)CO)C(=O)CCCn2cc(nn2)CO[C@@H]1CN(C)C(=O)Oc1cccc2ccccc12 -1.4
C[C@H]1CN([C@@H](C)CO)C(=O)CCCn2cc(nn2)CO[C@H]1CN(C)C(=O)Oc1cccc2ccccc12 -1.1
C[C@H](CO)N1C[C@H](C)[C@H](CN(C)C(=O)Oc2cccc3ccccc23)OCc2cnnn2CCCC1=O 0.0
C[C@H]1CN([C@@H](C)CO)C(=O)CCCn2nncc2CO[C@H]1CN(C)C(=O)Oc1cccc2ccccc12 0.9
CCOC(=O)[C@@H]1[C@@H]2NC(=O)N(C)[C@@]1(C)Oc1ccccc12 0.2
C[C@H]1CN([C@@H](C)CO)C(=O)CCCn2nncc2CO[C@@H]1CN(C)C(=O)Oc1ccccc1 1.9
CN1CCN(C(=O)CN=[N+]=[N-])CC1 -0.4
CCOC(=O)[C@@H]1[C@@H]2NC(=S)N(C)[C@@]1(COCc1ccc(OC)cc1)Oc1ccccc12 0.6
C[C@@H]1CN([C@H](C)CO)C(=O)CCCn2nncc2CO[C@@H]1CN(C)C(=O)Oc1ccccc1 0.7

Fetched by structure from the list above:
SMILES A1_apoptosis_2
C[C@H](CO)N1C[C@H](C)[C@H](CN(C)C(=O)Oc2cccc3ccccc23)OCc2cn(nn2)CCCC1=O -0.5
CN1CCN(C(=O)CN=[N+]=[N-])CC1 -0.4
CCOC(=O)[C@@H]1[C@@H]2NC(=S)N(C)[C@@]1(COCc1ccc(OC)cc1)Oc1ccccc12 0.6
C[C@H]1CN([C@@H](C)CO)C(=O)CCCn2nncc2CO[C@@H]1CN(C)C(=O)Oc1ccccc1 1.9
C[C@H](CO)N1C[C@H](C)[C@H](CN(C)C(=O)Oc2cccc3ccccc23)OCc2cnnn2CCCC1=O 0.0
